# Bioassay records (PubChem)
# PMP22 txn prim: Cell-based coincidence reporter assay to measure PMP22 gene transcription in S16 Pmp22-F2sN cells - Primary screen; S16 Pmp22-F2sN Schwann cells (luciferase reporters placed in the Pmp22 gene), FLuc/NLuc coincidence luminescence, 24 h; Potency, µM (titrated, usually from 57.5 µM), inactives show at the top dose activity change, negative = inhibition, most hits filed as inhibitors; 43,000 tested, 2% active; active = clear falling dose curves in both reporters; inconclusive = both reporters move, but less clearly or upward; inactive = either reporter flat; the % is the NLuc reporter signal; note: % is set by controls: 0 for no effect and ±100 for the full control effect; some results filed as inactive show a strong effect at the top dose
#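 Transcriptional readout in edited S16(c9) cells: two luciferases reported from the Pmp22 locus, measured in turn after 24 h compound incubation.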
# HTT promoter inh: Primary qHTS for Identification of Small Molecule Inhibitors of Huntingtin Promoter Activity | HEK293 HTT promoter firefly luciferase reporter (activity 0% = vehicle and -100% = no light), 24 h | Potency, µM (doses to about 57.5 µM), for the others: at the top dose activity change, negative = inhibition, actives largely listed as inhibitors | 48,000 tested, 0.93% active | AID 1508623, 2021; active = well fitted inhibition curve with a large enough effect; inconclusive = small, poorly fitted or top-dose-only effect; inactive = no such curve, though single readings can be large or run the other way; note: nearly all actives have a fitted effect of over 50% in size
#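 Quantitative HTS used concentration series of up to 57.5 uM final on HEK293 luciferase reporter cells, 24 h at 37 degrees C. Readout was Dual-Glo firefly luminescence.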
# * marks the source's active call; other numbers are inactive results; u = inconclusive; x = not tested or not shown; [ ] = remark or other dose. Potency is the fitted concentration of half-maximal effect.
SMILES,PMP22 txn prim,HTT promoter inh
CCCCN(C)C(=O)C1CCCN(c2ncnc3onc(-c4ccc(F)cc4)c23)C1 (centres undefined),u,-23%
CCOC(=O)c1ccc(NC(=O)CSc2cc(-c3ccccc3)nc(C)n2)cc1,17%,-21%
O=C(NCc1ccccc1Cl)c1ccc2nc(Cc3ccccc3)oc2c1,0%,-9%
CCOC(=O)CC(NC(=O)Cn1nnc(-c2ccccc2Cl)n1)c1ccc(OC)cc1 (centres undefined),9%,u
O=C(CCSCc1cnn(-c2ccccc2)c1-n1cccc1)NCc1ccccc1Cl,-28%,u
Cn1c(=O)c2c(nc(SCC(=O)Nc3ccc(F)cc3F)n2Cc2ccccc2)n(C)c1=O,-26%,-8%
CCCC1=Nc2cc(C(=O)N3CCC(C)CC3)ccc2Sc2ccc(C)cc21,-2%,-13%
CCNc1nc2c(c(=O)n(C)c(=O)n2C)n1Cc1ccc(F)cc1,u,u
CCOC(=O)c1sc(N2C(=O)c3oc4cc(C)c(C)cc4c(=O)c3C2c2cccc(O)c2)nc1C (centres undefined),-1%,4%
CCn1nc(C)c2c(-c3ccccc3)cc(=O)n(C(C)C(=O)NCc3ccc(C)cc3)c21 (centres undefined),-1%,-23%
O=C(c1ccccc1)N1CCc2cc(CNS(=O)(=O)c3ccccc3Cl)ccc21,u,u
CCc1ccc(NC(=O)CN2CCCN(Cc3cccc(Cl)c3)S2(=O)=O)cc1,-22%,-13%
CCOc1cc(C2c3c(-c4ccccc4O)n[nH]c3C(=O)N2Cc2cccnc2)ccc1O (centres undefined),-29%,-11%
Cc1ccc(CN2CCC(CNc3ncnc4onc(-c5ccc(Cl)cc5)c34)CC2)cc1,u,-20%
COc1ccccc1NC(=O)C1=C(C)Nc2nc(SCc3ccccc3)nn2C1c1ccncc1 (centres undefined),u,-7%
COCCCn1c(=N)c(S(=O)(=O)c2ccccc2)cc2c(=O)n3cc(C)ccc3nc21,u,-3%
COc1ccc(NC(=O)CN2CCN(C3CCCCC3)C(=O)C2=O)cc1,10%,1%
CCOC(=O)C1CCCN(Cc2cn3c(-c4ccc(Br)cc4)nnc3s2)C1 (centres undefined),u,-11%
Cc1cc(C)c2c(=O)cc(C(=O)Nc3sc4c(c3C(=O)NCc3ccccc3)CCCC4)oc2c1,-1%,1%
Cc1ccc2c(=O)cc(C(=O)Nc3nc4ccc(Cl)cc4s3)oc2c1,16%,16%
COc1cccc(N2CCN(Cc3nnc(-c4ccc5c(c4)OCO5)o3)CC2)c1,-6%,-5%
Cc1cccc(-n2ccnc2SCC(=O)Nc2cccc3ccccc23)c1,u,-24%
O=C(Nc1ccc(Cl)c(-c2nc3ccccc3o2)c1)c1ccc(-c2cccc([N+](=O)[O-])c2)o1,-17%,-2%
CCN(Cc1ccccc1)C(=O)CCS(=O)(=O)c1ccc2c(c1)CCN2C(C)=O,-21%,-7%
CCN(C(=O)CCS(=O)(=O)c1cc2c(cc1C)NC(=O)CO2)c1cccc(C)c1,-19%,-6%
CCCCOC(=O)c1c(C)oc2c1cc(NS(=O)(=O)c1cc(OC)ccc1OC)c1ccccc12,-1%,-36%
CCC(C(=O)NCc1ccc2c(c1)CCN2C(=O)c1ccc(F)cc1)c1ccccc1 (centres undefined),25%,-6%
Cc1ccc(NC(=O)c2cnc(SCC(=O)N3CCCc4ccccc43)n(C)c2=O)cc1C,-14%,-15%
COc1cccc2sc(NC(=O)c3ccc(S(=O)(=O)N4CCC(C)CC4)cc3)nc12,0%,28µM*
CCC(C)Cn1c(COc2ccc(OC)cc2)nc2ccccc21 (centres undefined),15%,-16%

# Full records from above:
# COc1cccc2sc(NC(=O)c3ccc(S(=O)(=O)N4CCC(C)CC4)cc3)nc12 is listed as PMP22 txn prim = 0%; HTT promoter inh = 28µM*
# Cc1cc(C)c2c(=O)cc(C(=O)Nc3sc4c(c3C(=O)NCc3ccccc3)CCCC4)oc2c1 is listed as PMP22 txn prim = -1%; HTT promoter inh = 1%

# Other entries follow:
SMILES,PMP22 txn prim,HTT promoter inh
COc1cc(OC)c(NC(=O)c2noc3c2CSc2ccccc2-3)cc1Cl,2%,-16%
Cc1ccc(C)c(CN2C(=O)c3ccccc3S(=O)(=O)c3ccc(C(=O)N4CCN(Cc5ccccc5)CC4)cc32)c1,0%,8%
Cc1ccc(S(=O)(=O)CCC(=O)Nc2ccc(Br)cc2C)cc1,-10%,-10%
CCOc1ccc(-n2c(SCc3ccccc3)nc3c([nH]c4ccccc43)c2=O)cc1,-32%,-12%
Cc1ccc2nc(-c3ccncc3)c(Nc3ccccc3C)n2c1,-17%,-7%
Cc1nn(C)c2c1c(C(F)(F)F)cc(=O)n2C(C)C(=O)NCc1ccccc1 (centres undefined),u,-23%
O=C(CN1C(=O)CCc2cc(S(=O)(=O)N3CCOCC3)ccc21)NCc1ccc(Cl)cc1,8%,-16%
COc1ccc(CCNC(=O)CCc2c(C)nc3cc(-c4cccc(F)c4)nn3c2C)cc1OC,-12%,u
Cc1ccc(CN2CCCn3nc(C(=O)NCCN(C)C)cc3C2=O)cc1,-5%,-12%
CC(Cc1ccc(O)c(O)c1)(NN)C(=O)O (centres undefined),x,3%
O=S(=O)(c1ccccc1)n1nc(-c2ccccc2)nc1NCc1ccc(Cl)cc1,-35%,-13%
CCC(C)NC(=O)Cn1cnc2sc(C)c(S(=O)(=O)N3CCN(c4ccccc4OC)CC3)c2c1=O (centres undefined),0%,-6%
CCOC(=O)c1ccc(NC(=O)Cn2cc(C(=O)c3ccc(CC)cc3)c(=O)c3ccc(C)nc32)cc1,u,-4%
OCCCc1nc2n(n1)C(c1cccc(Cl)c1)C=C(c1ccccc1)N2 (centres undefined),u,-25%
CCCn1cc(S(=O)(=O)c2cccc(Cl)c2)c(=O)c2cc(F)c(N3CCN(CC)CC3)cc21,u,-21%
O=C(CSCc1cccc(F)c1)NCc1ccccc1,4%,58%[activator]
CCN(C(=O)c1sc2nc3n(c(=O)c2c1C)CCCC3)c1ccccc1F,u,-13%
CCOC(=O)c1c(S(=O)(=O)N2CCCC(C(=O)N3CCN(c4ccc(F)cc4)CC3)C2)c(C)n(C)c1C (centres undefined),8%,-13%
CN[C@@H](C)[C@H]1[C@H](O)C[C@@]2(C)[C@@H]3CC[C@H]4C(C)(C)[C@@H](NC)CC[C@@]45C[C@@]35CC[C@]12C,x,4%
NC(=O)[C@@H]1CSSCCC(=O)N[C@@H](CCCCN=C(N)N)C(=O)NCC(=O)N[C@@H](CC(=O)O)C(=O)N[C@@H](Cc2c[nH]c3ccccc23)C(=O)N2CCC[C@H]2C(=O)N1,x,1%
Cc1c(C(=O)N(Cc2ccc(Cl)cc2)CC2CCCO2)oc2ccc(F)cc12 (centres undefined),-9%,-16%
Cc1ccccc1CSc1cn(CC(=O)N2CCCCCC2)c2ccccc12,u,-6%
COc1ccc(C(=O)NCCn2cc(SCC(=O)Nc3cccc(C)c3)c3ccccc32)cc1,u,u
Cc1ccc2c(CNCCc3ccccc3)c(C(=O)O)n(Cc3ccccc3C)c2c1,11%,-8%
CCOc1cccc(C(=O)N(Cc2ccc(N(C)C)cc2)CC2CCCO2)c1 (centres undefined),-6%,-16%
O=C(NC1CCCCCC1)c1ccc2c(c1)sc1nc(-c3ccccc3)cn12,-98%,5%
CCc1nc(-c2cc(S(=O)(=O)N3CCN(c4ccccc4F)CC3)ccc2OC)no1,-12%,u
Cc1cccc(CN2C(=O)c3ccccc3Sc3ccc(C(=O)NC4CCCCC4)cc32)c1,5%,-9%
Cc1c(C(=O)N2CCN(c3ccccc3)CC2)sc2nc3n(c(=O)c12)CCC3,-5%,-10%
Cc1c(C(=O)N2CCN(c3ccc(F)cc3)CC2)sc2nc3n(c(=O)c12)CCC3,-2%,0%

# Remaining list, next part.
SMILES,PMP22 txn prim,HTT promoter inh
Cc1nn(-c2ccc(F)cc2)c(-n2cccc2)c1C(=O)N1CCCCC1C (centres undefined),-3%,u
O=S1(=O)c2ccccc2N(Cc2ccc(Cl)cc2)c2ccccc21,4%,u
CCOc1ccc(NCc2cccn2-c2nnc(N3CCC(C(=O)NCCOC)CC3)s2)cc1,-35%,-26%
Cc1ccc(CNC(=O)Cn2ccn(-c3cccc(Cl)c3)c(=O)c2=O)cc1,-1%,-8%
CCN1CCN(c2csc3ccc(Br)cc3c2=O)CC1,u,14%
Cc1ccccc1-c1nnc(SCC(=O)N(C)C2CCCCC2)o1,8%,53%[activator]
COc1ccc(NC(=O)Cn2c(=O)n(CC3CCCO3)c(=O)c3ccccc32)c(OC)c1 (centres undefined),-2%,-5%
COc1cccc(N2CCN(C(=O)c3cccc(NC(=O)c4nsc5ccccc45)c3)CC2)c1,-125%,-39%
CC(=O)c1ccc(NC(=O)CCc2c(C)nc3cc(-c4ccc(Cl)cc4)nn3c2C)cc1,-29%,0.28µM*
CCN(CC)CCCNC(=O)CN1C(=O)COc2ccc(S(=O)(=O)N3CCC(C)CC3)cc21,-29%,-13%
Cc1cccc(N2CCN(S(=O)(=O)c3ccc4[nH]c5c(c4c3)CCCCC5)CC2)c1C,-12%,8%
Cc1ccc(CCNC(=O)Cn2nc(-c3ccc(C)cc3)ccc2=O)cc1,-2%,-21%
c1cnc(N2CCN(c3ncc4c(n3)CCNC4)CC2)nc1,-4%,2%
Cc1cccc(NC(=O)CSc2nnc(C)c(=O)[nH]2)c1,-44%,-8%
COc1ccc(C(=O)Nc2nc(-c3ccc(Br)cc3)ns2)cc1,-19%,-19%
CCOC(=O)c1ccc(NC(=O)Cn2ncc3c(C)n(Cc4ccccc4F)c(C)c3c2=O)cc1,-30%,4%
O=C(CCCCCCC(=O)Nc1ccccc1)NO,x,310%[activator]
Cc1nc2ccccc2n2c(-c3ccccc3)c3c(=O)n(C)c(=O)n(C)c3c12,u,7%
CC(C)Oc1cccc(C(=O)Nc2ccc(-c3nc4cc(Cl)cc(Cl)c4o3)cc2)c1,-8%,-6%
Cc1ccc(OCC(=O)NCC(=O)OCc2cc(=O)n3nc(C)sc3n2)cc1,-30%,1%
Cc1ccc(NC(=O)C2CCN(S(=O)(=O)c3c(C)noc3/C=C/c3cccs3)CC2)cc1F,u,u
O=S(=O)(Nc1ccc(F)c(C(F)(F)F)c1)c1ccc(N2CCCCS2(=O)=O)cc1,4%,u
COc1ccc(S(=O)Cc2ccc(C(=O)N3CCN(c4cccc(C)c4C)CC3)o2)cc1 (centres undefined),u,u
CCOc1ccc(C2CC(=O)c3c([nH]c(C(=O)OC4CCC(C)CC4)c3C)C2)cc1 (centres undefined),-7%,-5%
Cc1ccc2ncc(S(=O)(=O)c3ccccc3)c(N3CCCCC3C)c2c1 (centres undefined),u,u
Cc1ccc(CNC(=O)c2sc3ncnc(N(C)C4CCCCC4)c3c2C)cc1,u,u
O=C1C(c2[nH]c3ccccc3c2O)=Nc2ccccc21,x,-5%
CCOC(=O)C1CCCN(S(=O)(=O)c2cc(-c3onc(C)c3C)ccc2OC)C1 (centres undefined),u,u
COc1ccc(-c2noc(CSc3nnc(-c4ccncc4)n3-c3cccc(C)c3)n2)cc1OC,10µM*,u
CN(C)c1ccc(CNC(=O)CCCN2C(=O)CCn3nc(-c4cccn4C)cc32)cc1,-5%,0%

# Part of the list above, with each value named.
c1cnc(N2CCN(c3ncc4c(n3)CCNC4)CC2)nc1
  PMP22 txn prim: -4%
  HTT promoter inh: 2%

CCOC(=O)C1CCCN(S(=O)(=O)c2cc(-c3onc(C)c3C)ccc2OC)C1 (centres undefined)
  PMP22 txn prim: u
  HTT promoter inh: u

# Some of these compounds in order of length of the SMILES, smallest number first:
SMILES,PMP22 txn prim,HTT promoter inh
Cc1ccccc1-c1nnc(SCC(=O)N(C)C2CCCCC2)o1,8%,53%[activator]
CCN(CC)CCCNC(=O)CN1C(=O)COc2ccc(S(=O)(=O)N3CCC(C)CC3)cc21,-29%,-13%
CCOC(=O)c1c(S(=O)(=O)N2CCCC(C(=O)N3CCN(c4ccc(F)cc4)CC3)C2)c(C)n(C)c1C (centres undefined),8%,-13%

# Other results.
SMILES,PMP22 txn prim,HTT promoter inh
CCC1CCCCN1C(=O)c1ccc2c(c1)N(Cc1cccc(Cl)c1)C(=O)c1ccccc1S2(=O)=O (centres undefined),u,-55%
Cc1cc(Nc2ccccc2C)nc(-n2nc(C)cc2C)n1,u,u
COc1ccccc1-c1nc(SCC(=O)NCc2ccccc2)c2c(=O)n(C)c(=O)n(C)c2n1,-7%,0%
CCC(C)NC(=O)Cn1c(=O)n(Cc2ccc(C(=O)NCc3ccccc3OC)cc2)c(=O)c2ccccc21 (centres undefined),7%,-16%
CN(C)c1ccc(CNS(=O)(=O)c2ccc3[nH]c4c(c3c2)CCCCC4)cc1,u,u
CN(C)CCCOC1(Cc2ccccc2)CCCCCC1,x,-5%
Cc1c(C(=O)OCCOc2ccccc2)[nH]c2c1C(=O)CC(c1ccc(C(C)(C)C)cc1)C2 (centres undefined),-14%,u
CCc1ccc(CN(Cc2cn[nH]c2-c2ccc(OC)cc2)C(=O)Nc2cc(Cl)ccc2OC)cc1,u,u
